Screens from PubChem.
BJeLR lethal: BJeLR cell viability loss; inhibition, % (no concentration beside the values); BJeLR (HRASV12) viability, CellTiter-Glo ATP luminescence, 48 h; reference of the scale not given here; 300,000 tested, 0.17% active;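 active = replicate mean above 50%; inconclusive = above 50% but judged a plate artefact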;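 also: 50 nL library stock added to about 25 µL; numbers are from one replicate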
Sa RN4220 lethal: S. aureus RN4220 growth inhibition | 330,000 tested, 0.33% active | inhibition, % (no concentration beside the values) | OD600, 16 h;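 active = z-score of -3 or lower and OD600 up to 0.18 on both plates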;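 also: plate controls were untreated cells for no effect and reference antibiotic for full effect; stock transfer was 100 nL into about 80 µL; one replicate is shown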
Mtb hypoxia rep: reduces hypoxia-regulated biosensor signal in M. tuberculosis; M. tuberculosis hypoxia-regulated fluorescent reporter, fluorescence; fluorescence inhibition, % (concentration not given with the values); 300,000 tested, 0.1% active; AID 1159583;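 active = 35 to 45% if threefold the growth effect, above 45% if 1.5-fold the growth effect; inactive = the rest, general growth blockers included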;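 also: wells of about 50 µL received 100 nL stock; 0% = vehicle wells and 100% = reference inhibitor wells; whole bacteria with a GFP reporter of the hypoxia response; strong numbers were not always called active; many hits fall short of the cut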
Autofluor counter: counter-screen for toxin protease inhibitors: compound fluorescence; 360,000 tested, 3.1% active; fluorescence intensity (test concentration not listed); compound autofluorescence counterscreen, microsphere flow cytometry; hits give high values; AID 624483;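 active = at least 3 SD above the mean of all compounds, about 16000 in these data; inconclusive = too few beads counted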;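 also: 100 nL of 1 mM stock went into each well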
PrP 5UTR inh: suppresses PrP 5' UTR mRNA reporter expression. cell-based PrP 5' UTR mRNA reporter, plate reader. inhibition, % (concentration not given with the values). 340,000 tested, 0.35% active;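 active = every replicate at 50% or more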;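 also: 0 = median of the neutral control wells; tested in H4 reporter cells; numbers are from one replicate; inactives centre near -14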
Sa ugtP lethal: kills S. aureus RN4220 lacking UgtP; S. aureus RN4220 ugtP deletion, OD600 growth, 16 h; some inactives read as strong as hits; growth inhibition, % (concentration not given with the values); 330,000 tested, 0.54% active; AID 1259309;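 active = z-score under -3 and OD600 up to 0.15 on both plates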;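 also: plate controls were untreated wells for no effect and antibiotic for full effect; wells of about 80 µL received 100 nL stock; the first replicate is given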
Mtb hypoxia rep growth: further read-out of Mtb hypoxia rep, marked with its call; growth inhibition, %; measured here: M. tuberculosis growth (absorbance);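 0% = vehicle and 100% = reference antibiotic; read after six days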
Active calls of the source: *; ? = inconclusive; . = no result given.

item	canonical_smiles	BJeLR lethal	Sa RN4220 lethal	Mtb hypoxia rep	Mtb hypoxia rep growth
1	COc1ccc(CCNC(=O)c2cccc(NC(=O)CC3SC(N4CCCCC4)=NC3=O)c2)cc1OC (stereo unspecified)	-4	0.7	1	2
2	COc1ccc(OCCN2CCOCC2)cc1	-5	0.1	11	7
3	COc1ccccc1-n1c(CNC(=O)c2ccc(S(=O)(=O)N3CCCCC3)cc2)n[nH]c1=S	16	-1.8	6	-11
4	COC(=O)c1ccc(OC)c(CSc2nnc(-c3ccc(C(C)(C)C)cc3)o2)c1	1	-4.1	17	7
5	C=C(C)COc1ccc(-c2[nH]ncc2Oc2cccc(OC)c2)c(O)c1	9	.	.	.
6	CN(C)C(=O)Oc1ccnc2cc(Cl)ccc12	8	0.2	3	4
7	N#Cc1ccc(COC(=O)CC(NC(N)=O)c2ccc(Cl)cc2)cc1 (stereo unspecified)	0	-4.1	6	-3
8	COCCNC(=O)/C(C#N)=C/c1c(N2CCN(C)CC2)nc2c(C)cccn2c1=O	4	4.4	5	15
9	O=S(=O)(/N=C(/Nc1cccc2ccccc12)c1ccc(F)cc1)c1ccccc1	-4	0.8	4	3
10	CN1CCc2c(sc(NC(=O)c3ccc4ccccc4c3)c2C(N)=O)C1	13	.	.	.
11	CN(Cc1ccccc1)C(=O)COc1ccc(N(C)S(=O)(=O)c2ccc(F)cc2)cc1	2	1.0	7	0
12	O=C(COC(=O)c1ccc(Cl)cc1[N+](=O)[O-])NNC(=O)c1cccs1	3	4.5	15	24

item	Autofluor counter	PrP 5UTR inh	Sa ugtP lethal
1	5298	-10	4
2	3617	-31	-1
3	6211	-10	3
4	.	.	47
5	3240	-18	.
6	4771	-12	-6
7	4395	-12	2
8	3635	.	8
9	5979	-6	9
10	?	-45	.
11	4011	-4	-3
12	?	-3	13

New compounds follow:
item	canonical_smiles	BJeLR lethal	Sa RN4220 lethal	Mtb hypoxia rep	Mtb hypoxia rep growth
13	CN(Cc1ccccc1)C(=O)c1cccc(NC(=O)Cc2ccc(NC(=O)C3CCCN(C(=O)c4ccccc4)C3)cc2)c1 (stereo unspecified)	.	4.0	-1	-1
14	CC(C)(C)NC(=O)COC(=O)c1ccccc1Nc1ccc(SC(F)F)cc1	22	4.5	4	9
15	CCCNC(=O)Cn1c(=CC(=O)C(C)(C)C)sc(=Cc2ccc(-c3cccc([N+](=O)[O-])c3)o2)c1=O	.	11	6	-4
16	O=C(/C=C/c1ccccc1)NC(=S)Nc1ccccc1C(=O)NC1CCCCC1	-4	11	10	1
17	CNC(=O)c1c(NC(=O)c2cccc(N3C(=O)CCC3=O)c2)sc2c1CCC2	7	2.7	-2	5
18	Cc1ccc(CSc2nnc(-c3ccco3)n2N)cc1	0	-1.8	-14	-11
19	CC1=C(C(=O)OC(C)C)C(c2ccc(Br)s2)NC(=O)N1C (stereo unspecified)	1	-0.7	.	.
20	CC(C)(C)n1nc2c(c1NC(=O)c1ccc(F)c(F)c1)CS(=O)(=O)C2	3	-0.1	4	-7
21	CCN(CC(=O)Nc1ccccc1C(F)(F)F)C(=O)Cc1ccccc1	-3	2.1	-11	2
22	O=C(Nc1ccc(NC(=O)C2CC2)nc1)c1cnccn1	14	5.0	12	9
23	Cc1cc2ncn(-c3ncnc4sc(C)c(C)c34)c2cc1C	-10	-18	9	6
24	Cc1cccc(OCC(O)CN2CCOCC2)c1 (stereo unspecified)	0	6.0	5	8

item	Autofluor counter	PrP 5UTR inh	Sa ugtP lethal
13	3978	-65	-1
14	2371	-5	-2
15	.	.	6
16	9321	-15	6
17	4450	-28	1
18	23093*	-37	-6
19	2350	-4	9
20	6126	-3	4
21	3926	2	0
22	2255	-33	10
23	2856	-14	-23
24	3593	-30	11

Grouped by structure, the entries above with a tert-butyl group.
item	canonical_smiles	BJeLR lethal	Sa RN4220 lethal	Mtb hypoxia rep	Mtb hypoxia rep growth
4	COC(=O)c1ccc(OC)c(CSc2nnc(-c3ccc(C(C)(C)C)cc3)o2)c1	1	-4.1	17	7
14	CC(C)(C)NC(=O)COC(=O)c1ccccc1Nc1ccc(SC(F)F)cc1	22	4.5	4	9
15	CCCNC(=O)Cn1c(=CC(=O)C(C)(C)C)sc(=Cc2ccc(-c3cccc([N+](=O)[O-])c3)o2)c1=O	.	11	6	-4
20	CC(C)(C)n1nc2c(c1NC(=O)c1ccc(F)c(F)c1)CS(=O)(=O)C2	3	-0.1	4	-7

item	Autofluor counter	PrP 5UTR inh	Sa ugtP lethal
4	.	.	47
14	2371	-5	-2
15	.	.	6
20	6126	-3	4

Additional structures.
item	canonical_smiles	BJeLR lethal	Sa RN4220 lethal	Mtb hypoxia rep	Mtb hypoxia rep growth
25	O=C(C1CC1)N1CCc2cc(S(=O)(=O)N3CCOCC3)ccc21	-4	1.8	.	.
26	C=CCOc1ccccc1OCC(O)CNC(C)C (stereo unspecified)	.	6.4	12	3
27	C=CCN1C(=O)c2ccc(C(=O)N(C)CC(=O)Nc3ccc(OCC)c(OCC)c3)cc2C1=O	-6	2.3	-4	-7
28	Cc1onc(-c2ccccc2)c1C(=O)NN=C/C=C/c1ccccc1	.	2.8	10	4
29	Cc1ccsc1C(=O)NCc1ccc(F)cc1	-6	6.1	11	8
30	O=C(COC(=O)Cc1cccc(C(F)(F)F)c1)NCc1ccco1	.	3.8	0	-4
31	COc1ccc(OC)c(S(=O)(=O)N2CCC(C(=O)Nc3cc(C)ccc3C)CC2)c1	-5	0.9	0	-3
32	Cc1ccc(SCC(O)=C(C#N)c2nc3ccccc3s2)cc1	.	97*	6	4
33	CCCc1cc(=O)oc2cc(C)cc(OCC(=O)Nc3cccnc3)c12	-1	7.8	3	20
34	CCOC(=O)/C=C/COc1ccccc1[N+](=O)[O-]	-6	0.0	4	1
35	O=C(NCC1CCCO1)c1onc(CSc2ccc(F)c(F)c2)c1C(=O)O (stereo unspecified)	0	8.2	14	4
36	CCN(CC)CCNS(=O)(=O)c1ccc(/C=C/C(=O)O)cc1	0	3.7	6	-1

item	Autofluor counter	PrP 5UTR inh	Sa ugtP lethal
25	3603	0	13
26	6062	-13	8
27	6267	-22	1
28	.	.	-5
29	6043	-15	12
30	2842	7	6
31	10521	-12	6
32	.	.	92*
33	5958	2	-5
34	3252	-58	3
35	4126	-16	1
36	3628	-29	5

Further structures.
item	canonical_smiles	BJeLR lethal	Sa RN4220 lethal	Mtb hypoxia rep	Mtb hypoxia rep growth
37	CCOc1ccc(NC(=O)N2CCC(C(N)=O)(N3CCCCC3)CC2)cc1	-3	1.1	8	4
38	CCN(CC)CCn1c2ccccc2c2n[nH]c(=S)nc21	16	4.7	0	9
39	CSc1ccc(S(=O)(=O)N2c3ccccc3CC2C)cc1 (stereo unspecified)	8	5.9	12	1
40	COCCN(Cc1ccccc1)C(=O)c1cccc(S(=O)(=O)N2CCN(c3ccccc3)CC2)c1	1	-1.0	-8	0
41	Cc1cc(C)n(C(=O)CNC(=O)c2cccc(Br)c2)n1	-2	4.9	6	4
42	NS(=O)(=O)c1ccc(S(=O)(=O)NCCc2ccccc2)cc1	6	8.7	0	9
43	CCCOc1ccc2oc(=O)c3c(c2c1)CCCN3C(=O)CN1CCCC(C(=O)OCC)C1 (stereo unspecified)	-9	2.2	.	.
44	O=C(NN=Cc1ccccc1[N+](=O)[O-])c1ccncc1	.	4.0	4	8
45	CCc1cc[n+](-c2nc3ccccc3nc2C(=C=[N-])C#N)cc1	11	5.5	16	10
46	CC(C)P(=O)(c1cccc(C(=O)O)c1)C(C)C	5	4.2	10	11
47	CCOc1ccc(CN(C(=O)c2cc3ccccc3oc2=O)C2CC2)cc1	-22	4.0	4	9
48	COc1ccc(OC)c(CNC(=O)C2CCN(C(=O)N(C)C)CC2)c1	1	8.8	12	13

item	Autofluor counter	PrP 5UTR inh	Sa ugtP lethal
37	4243	-37	4
38	2875	-10	-1
39	4159	-30	14
40	5552	-10	1
41	5272	-4	-6
42	?	-19	-9
43	2734	-19	6
44	.	.	7
45	?	-31	4
46	9294	-19	14
47	4067	-21	2
48	9190	-10	17

Going on with the list.
item	canonical_smiles	BJeLR lethal	Sa RN4220 lethal	Mtb hypoxia rep	Mtb hypoxia rep growth
49	COc1ccccc1/C=C1\SC(=S)N(CCC(=O)NCCCN2CCOCC2)C1=O	-3	5.8	14	9
50	Cc1ccc(NC(=S)NC(NC(=O)Cc2cccc3ccccc23)C(Cl)(Cl)Cl)cc1 (stereo unspecified)	-3	-7.7	1	2
51	COCCNC(=O)CSc1ccc(Cl)cc1	-2	7.4	6	-2
52	COC(=O)c1cc2c([nH]c3ccccc32)c(C)n1	0	5.8	-2	10
53	O=C(CSc1nccc(=O)[nH]1)N1CCOCC1	0	5.6	16	2
54	CC(=NNC(=O)c1ccncc1)c1ccc(NC(=O)c2ccc(Cl)cc2Cl)cc1	.	2.9	-5	5
55	Cc1cc(S(=O)(=O)Nc2ccc(C(=O)NCC(c3ccccc3)N(C)C)cc2)ccc1F (stereo unspecified)	-4	0.1	12	-2
56	CC(=O)C1=C(O)C(=O)N(c2ccc(Br)cc2)C1c1cccc([N+](=O)[O-])c1 (stereo unspecified)	-7	1.3	0	8
57	Cc1cccc(C)c1OCC(O)Cn1ccnc1C (stereo unspecified)	-17	-1.3	-11	4
58	COc1cc(/C=C2/OC(=O)c3cc([N+](=O)[O-])ccc32)cc(OC)c1OC	17	-1.9	5	16
59	O=C(Nc1cccc(Cl)c1N1CCOCC1)c1cccs1	5	5.2	21	8
60	CC(C)(C)OC(=O)N1CCCC1CO (stereo unspecified)	.	3.9	-3	3

item	Autofluor counter	PrP 5UTR inh	Sa ugtP lethal
49	4805	-4	10
50	6007	-13	-15
51	2511	-14	8
52	.	.	-4
53	6090	-16	2
54	.	.	-4
55	4322	-35	12
56	4433	-32	13
57	6101	-10	-5
58	4413	-11	-9
59	6036	-1	11
60	.	.	-4

Going on with the list:
item	canonical_smiles	BJeLR lethal	Sa RN4220 lethal	Mtb hypoxia rep	Mtb hypoxia rep growth
61	O=C(O)CN=C(NS(=O)(=O)c1ccc(Cl)cc1)c1ccc(F)cc1	-1	2.5	-2	-6
62	CCCCNC(=S)N1CCN(CC)CC1	2	4.2	3	0
63	COC(=O)C1=C(c2ccc(Cl)c(C(F)(F)F)c2)CC2CCC1N2C (stereo unspecified)	.	-0.4	4	7
64	Cc1cc(NC(=O)COC(=O)c2ccccc2NCCO)no1	.	4.6	-3	7
65	CCCCCCN1CCN(c2ccc(Cl)cc2)CC1	0	22	-2	6
66	COc1ccc(Cl)cc1-n1c(=S)sc2c(=O)n(-c3ccc(F)cc3)c(SCC(=O)O)nc21	-10	5.6	13	2
67	COc1ccc(-c2nc(CS(=O)CC(=O)NCc3ccccc3)c(C)o2)cc1OC (stereo unspecified)	-2	3.3	-5	5

item	Autofluor counter	PrP 5UTR inh	Sa ugtP lethal
61	3190	-20	-1
62	2550	-18	6
63	.	.	-12
64	4164	-11	1
65	2549	-7	26
66	3250	-15	7
67	5674	-16	4
